Screening results from PubChem BioAssay.
LASV entry inh – inhibitors of Lassa virus binding or cell entry; Lassa virus pseudotype entry inhibition, cell reporter; control for the full effect not named in the record; Potency, µM (top dose mostly 37.9 µM), for inactives: at the top dose activity change, negative = inhibition, most hits filed as inhibitors; actives 1.2% (n = 300,000); AID 540256; active means well fitted inhibition curve with a large enough effect; inconclusive means small, poorly fitted or top-dose-only effect, or effect the other way; inactive means flat fitted curve, though single readings scatter; tested in HEK293 cells; note: % is set by controls: 0 for no effect and ±100 for the full control effect; nearly all actives have a fitted effect of over 50% in size; luciferase read-out
Marburg entry inh – Marburg virus entry inhibition; Marburg virus pseudotyped entry inhibition, cell reporter; control for the full effect not named in the record; about a third of the inactives were read at about 46 µM; Potency, µM (series often up to 37.8 µM), for the others: at the highest dose activity change, negative = inhibition, actives largely listed as inhibitors; actives 1.8% (n = 300,000); active = well fitted inhibition curve with a large enough effect; inconclusive = small, poorly fitted or top-dose-only effect, or effect the other way; inactive = flat fitted curve, though single readings scatter; tested in HEK293 cells; about a fifth of its hits are not listed in these tables; note: % is set by controls: 0 for no effect and ±100 for the full control effect; luciferase read-out
RE007 growth inh – less growth of the S. pombe RE007 Vpr strain; S. pombe RE007 Vpr strain, BacTiter-Glo ATP luminescence, 24 h; control for the full effect not named in the record; Potency, µM (top dose mostly 92.2 µM), inactives show at the highest dose activity change, negative = less growth; actives 0.21% (n = 360,000); active = well fitted falling curve with a large enough effect; inconclusive = small, poorly fitted or top-dose-only effect; inactive = no such curve, though single readings can be large or run the other way;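 note: % is set by controls: 0 for no effect and ±100 for the full control effect; nearly all actives have a fitted effect of over 50% in size; the assay follows cell death caused by Vpr and the record does not say whether a fall means rescue or toxicity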
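Fission yeast strain RE007, carrying one chromosomally integrated HIV-1 vpr copy, was seeded at OD 0.01 in PMG+AL medium with 23 nL pinned compound. After 24 h at 30 °C and 99% humidity, viability was read by BacTiter-Glo luminescence.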
SARS PLP yeast – SARS-CoV PLP inhibition in yeast; S. cerevisiae expressing SARS-CoV PLpro, growth rescue; control for the full effect not named in the record; Potency, µM (highest dose often 32.9 µM), for the others: at the top dose activity, positive = growth rescue; actives 0.19% (n = 330,000); AID 485353; note: 0% is about no effect; nearly all actives have a fitted effect of over 55% in size; growth read by luminescence after 48 h
Cruzain inh noDet – cruzain (T. cruzi) inhibition without detergent; P25779; purified cruzain, Z-FR-AMC fluorescence, no detergent; Potency, µM, for inactives: max response, negative = inhibition, actives largely listed as inhibitors; AID 1476; actives 2.3% (n = 200,000); active = well fitted curve in the direction sought with a large enough effect; inconclusive = small, poorly fitted or top-dose-only effect, or another doubt; inactive = no such curve, though single readings can be large; an effect the other way counts as inactive or inconclusive;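 note: plate controls were enzyme without inhibitor for no effect and buffer without enzyme for full effect; nearly all actives have a fitted effect of over 40% in size; top concentration of the series not given in the record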
Target sequence (P25779 123-467 limits assumed): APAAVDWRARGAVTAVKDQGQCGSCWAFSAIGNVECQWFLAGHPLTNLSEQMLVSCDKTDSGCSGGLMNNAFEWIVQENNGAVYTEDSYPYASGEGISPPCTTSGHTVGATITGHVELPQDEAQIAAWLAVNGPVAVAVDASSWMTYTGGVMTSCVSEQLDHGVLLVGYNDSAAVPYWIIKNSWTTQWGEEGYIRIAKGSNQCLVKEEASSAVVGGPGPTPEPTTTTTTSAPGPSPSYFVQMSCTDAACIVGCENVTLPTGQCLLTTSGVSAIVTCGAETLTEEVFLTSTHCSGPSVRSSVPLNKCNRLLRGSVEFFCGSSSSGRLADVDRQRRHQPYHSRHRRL
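Purified cruzain at 1.5 nM, pre-incubated 15 min with compound at room temperature in 100 mM sodium acetate pH 5.5, 5 mM DTT, 0.00005% Triton X-100. Reaction started with 2 uM Z-FR-AMC; AMC fluorescence increase over 60 s gives rate.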
NS1 inh – influenza NS1 inhibition | S. cerevisiae slowed by influenza A NS1, growth recovery by OD600 | Potency, µM (series often up to 46.1 µM), without a hit: top-dose activity, positive = more growth | actives 0.4% (n = 270,000); note: actives are rising curves; nearly all actives have a fitted effect of over 50% in size
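A cell-based growth assay was used: compounds that relieve NS1-induced slow growth of budding yeast raise OD600. Assay medium was yeast nitrogen base with ammonium sulphate and -URA supplement, pH 6.0, with 2% galactose.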
StopGo reporter – FMDV 2A StopGo reporter, luciferase signal; human cells with a luciferase reporter of 2A StopGo recoding; control for the full effect not named in the record; Potency, µM (highest dose often 57.9 µM), for inactives: top-dose signal change, negative = less light; AID 1159524; actives 1.2% (n = 410,000); active = well fitted falling curve with a large enough effect; inconclusive = small, poorly fitted or top-dose-only effect; inactive = no such curve, though single readings can be large or run the other way; tested in HEK293T cells; note: % is set by controls: 0 for no effect and ±100 for the full control effect; nearly all actives have a fitted effect of over 45% in size; luciferase light after 4 h
Cruzain Triton – blocks cruzain activity in presence of Triton detergent; P25779; purified cruzain, Z-FR-AMC fluorescence, 0.01% Triton; Potency, µM, inactives show max response, negative = inhibition, hits mostly inhibitors; actives 0.43% (n = 200,000); AID 1478; active = well fitted curve in the direction sought with a large enough effect; inconclusive = small, poorly fitted or top-dose-only effect, or another doubt; inactive = no such curve, though single readings can be large; an effect the other way counts as inactive or inconclusive;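 note: plate controls were neutral wells for no effect and buffer without enzyme for full effect; nearly all actives have a fitted effect of over 40% in size; top concentration of the series not given in the record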
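Cysteine protease activity tested under reducing, mildly acidic conditions (100 mM sodium acetate pH 5.5, 5 mM DTT) plus 0.01% Triton X-100. Cruzain 1.5 nM; substrate Z-FR-AMC 2 uM; 15 min compound preincubation at room temperature.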
Active calls of the source: *; ? = inconclusive; nt = not tested or not shown; & = joins results of further samples; [ ] = remark or other dose. Unless noted, calls come from the whole dose curve; as a rule, active means well fitted rising curve with a large enough effect; inconclusive means small, poorly fitted or top-dose-only effect; inactive means no such curve, though single readings can be large or run the other way. Potency is the fitted concentration of half-maximal effect.

# | SMILES | LASV entry inh | Marburg entry inh | RE007 growth inh | SARS PLP yeast | Cruzain inh noDet | NS1 inh | StopGo reporter | Cruzain Triton
1 | Cc1cccc(NC(=O)c2cccc(NC(=O)c3ccco3)c2)c1 | 8.9%[46.1 µM] | 5.2%[46.1 µM] | -6.6% | nt | nt | nt | 8.5% | nt
2 | C[C@]12CC[C@H](O)CC1=CCC1C2CC[C@@]2(C)C1CC[C@@H]2NC(=O)[C@@H](N)Cc1cnc[nH]1 (stereo not given in full) | ? | 8.5%[46.1 µM] | -2.1% | nt | nt | nt | -2.9% | nt
3 | CCN(CC)S(=O)(=O)c1cc(NC(=O)COC(=O)CCC(=O)c2cccs2)ccc1C | -3.8%[46.1 µM] | 10.7%[46.1 µM] | 4.8% | -0.9% | nt | nt | -13.7% | nt
4 | Cc1ccc(C(=O)Nc2ncc(C)s2)o1 | ? | 5.2% | -17.8% | -17.1% | 6.1% | -57.9% | 31.5%[activator] | 3.6%
5 | CN1CCN(c2ccc(C(F)(F)F)cc2NC(=O)Nc2ccccc2)CC1 | nt | nt | -4.0% | 7.7% | nt | -2.7% | 3.2% | nt
6 | CCCn1c2ccccc2c2cnn(CC(=O)NCCN(CC)CC)c(=O)c21 | -14.5% | ? | 0.3% | 1.3% | nt | 3.4% | ? | nt
7 | O=C(CSCc1ccccc1)Nc1ccc2c(c1)C(=O)NC2=O | 0.4% | 7.6%[46.1 µM] | 8.1% | 1.7% | nt | nt | 2.6% | nt
8 | O=C(NCc1nnc(SCC(=O)N2CCC(Cc3ccccc3)CC2)o1)c1ccco1 | ? | 2.2% | -17.0% | -0.2% | nt | 1.0% | ? | nt
9 | O=C(NC1CCCCC1)C(c1cccnc1)N(C(=O)CCl)c1ccccc1Cl (stereo not given) | ? | ? | -9.0% | -4.2% | -4.2% | 14.4% | -13.0% | 0.0%
10 | O=c1c2oc3ccccc3c2n(Cc2ccc(F)cc2)c(=O)n1Cc1ccco1 | 9.5%[46.1 µM] | nt | nt | nt | ? | nt | ? | 1.4%
11 | CCCCSc1cnn(-c2ccccc2)c(=O)c1SCCCC | 0.2% | ? | -1.7% | -26.8% | -23.3% | 0.2% | -14.0% | -12.4%
12 | CC1(C)OC(=O)C(=Cc2ccc[nH]2)C(=O)O1 | -3.6% | 0.5% | 3.6% | -6.4% | nt | -36.4% | -3.0% | nt
13 | NCCS(=O)O | 4.8% | 13.7%&13.7%&13.7%&24.8%&13.7%&13.7%&13.7% | nt | nt | 6.4%&-2.2% | 0.0% | -6.2% | -4.5%&-0.5%
14 | CCOC(=O)c1sc(NC(=O)CSc2n[nH]c(CC)n2)nc1C | -14.1% | ? | 4.7% | 0.1% | nt | 1.8% | -11.4% | nt
15 | O=C(Nc1ccc(N2CCOCC2)cc1)c1cc(-n2cnnc2)ccc1Cl | -9.2% | 27.6% | -1.4% | 2.7% | nt | 4.7% | -12.5% | nt
16 | Cc1ccc(CCNC(=O)C2CCN(S(=O)(=O)c3cccc4nonc34)CC2)cc1 | 2.4% | 1.5% | 4.8% | -2.8% | -26.2% | 15.9% | -10.4% | 1.7%
17 | COc1ccc(C(=O)O/N=C(\N)Cc2ccc([N+](=O)[O-])cc2)c(OC)c1 | ? | ? | 5.6% | -0.8% | nt | -4.6% | -3.0% | nt
18 | CCOc1ccc(CN2CCN(CCCc3ccccc3)CC2CCO)cc1 (stereo not given) | nt | nt | -4.9% | 0.8% | nt | -2.9% | -18.7% | nt
19 | O=C(COc1cccnc1[N+](=O)[O-])c1ccc(Cl)s1 | -0.8% | -2.0% | ? | -1.6% | nt | 1.4% | 17.6% | nt
20 | CC1CCN(S(=O)(=O)c2ccc(Cl)cc2Br)CC1 | 8.3% | 6.9% | -6.3% | -15.9% | ? | -40.1% | -4.9% | 0.8%
21 | COc1ccc(CCn2c(O)c(C=NCCCO)c(=O)[nH]c2=O)cc1OC | -5.6% | 6.9% | 0.6% | -3.0% | 3.2% | -4.3% | -17.4% | 0.2%
22 | CC(C)(C)C(=O)OCOC(=O)[C@@H]1N2C(=O)[C@@H](N=CN3CCCCCC3)[C@H]2SC1(C)C | nt | nt | 1.8%[18.4 µM] | nt | -15.9% | nt | -12.8% | -2.9%
23 | Cn1ncc(C(=O)N2CCN(c3ccc(F)cc3)CC2)c1C1CCN(C(=O)OC(C)(C)C)CC1 | ? | nt | nt | nt | ? | nt | 2.7% | -1.7%
24 | CCOc1ccc(CCNC(=O)c2cn(-c3cccc(OC)c3)c(=O)c3ccccc23)cc1 | 7.4%[46.1 µM] | nt | nt | nt | 4.3% | nt | 25.4% | -4.0%
25 | CN1CCCC(OC(=O)c2ccc(S(=O)(=O)N(C)C)cc2)C1 (stereo not given) | nt | nt | -0.5% | -0.5% | nt | 9.5% | 4.4% | nt
26 | O=C(CNC(=O)c1cccnc1)N/N=C/c1ccc(O)cc1O | 9.5% | 21.6%[46.1 µM] | 13.3% | 2.0% | nt | 3.5% | 1.7% | nt
27 | CC1=C(C(=O)OCC2CCCO2)C(c2ccccc2)NC(=O)N1 (stereo not given) | ? | ? | -1.8% | -6.2% | -5.5% | 3.1% | nt | 1.3%
28 | [O-]/[N+](=C\c1ccc(F)cc1)c1ccccc1 | 5.0% | ? | 6.5% | -12.0% | -12.1% | -16.9% | nt | 2.5%
29 | Cc1ccc(S(=O)(=O)N2CCOCC2)cc1NCC(=O)Nc1ccc(OC(F)(F)F)cc1 | 8.0% | -6.8% | 14.5% | 0.2% | nt | nt | -3.3% | nt
30 | Oc1ccc(Br)cc1C1Nc2ccccc2S1 (stereo not given) | ? | 11.4% | -14.9% | -1.8% | nt | -3.1% | 54.6%[activator] | nt
31 | CCc1nnc(SCC(=O)Nc2cc(OC)ccc2OC)nc1CC | 6.2%[46.1 µM] | nt | nt | nt | -8.9% | nt | -13.2% | -2.3%
32 | Cc1ccc(CNC(=O)Cn2c(=O)n(-c3ccccc3)c(=O)c3sccc32)cc1 | -13.5%[46.1 µM] | 16.9%[46.1 µM] | -0.4% | 1.3% | nt | nt | -13.1% | nt
33 | CCOC(=O)c1[nH]ncc1CN1CCC(Cc2cccc(OC)c2)(C(=O)OCC)CC1 | nt | nt | 8.3% | 0.8% | nt | 1.7% | -13.9% | nt
34 | O=C(NC1CCCCC1)c1ccc(-c2ccccc2)cc1 | 15.9%[46.1 µM] | ? | 5.3% | nt | nt | nt | 41.0%[activator] | nt
35 | Cc1ccc(C2(C)NC(=O)N(CC(=O)Nc3ccc(N4CCOCC4)cc3N3CCOCC3)C2=O)cc1 (stereo not given) | -0.2% | -20.1% | 6.9% | 0.8% | nt | nt | 2.0% | nt
36 | O=CC1=C(N2CCOCC2)/C(=C\c2ccccc2)CC1 | ? | -24.6%[46.1 µM] | ? | 3.3% | nt | nt | -4.9% | nt
37 | Cc1ccc(CNCC(O)(c2ccccc2)c2ccc(F)cc2)cc1 (stereo not given) | 14.9% | ? | 7.9% | -6.1% | -1.8% | -11.0% | -9.5% | 7.5%
38 | CCC(c1nnnn1CCOC)N1CCN(Cc2ccccc2OC)CC1 (stereo not given) | -2.7% | -24.7% | 7.9% | 3.5% | -4.6% | -10.9% | -2.7% | 3.1%
39 | Cn1c(SCC(=O)N2CCc3ccccc32)nnc1C1CC1 | 1.8% | 25.8% | 21.0% | -0.1% | -6.7% | 3.4% | -2.7% | 2.7%
40 | CC(Oc1ccccc1)C(=O)Nc1nc2ccc(S(N)(=O)=O)cc2s1 (stereo not given) | 1.0%[46.1 µM] | nt | nt | nt | -6.6% | nt | 11.4% | -3.9%
41 | CCCN(CC(=O)Nc1ccccc1OC)C(=O)CSc1nc(C)cc(C)n1 | -1.8% | -19.1%[46.1 µM] | -21.9% | 6.3% | nt | nt | -11.1% | nt
42 | CCOc1cccc(C2C(C(=O)c3ccc(C)o3)=C(O)C(=O)N2CCCn2ccnc2)c1 (stereo not given) | 9.4% | 9.2%[46.1 µM] | -10.7% | 2.7% | nt | nt | 2.9% | nt
43 | O=C(N/N=C/c1cccnc1)/C(=C\c1cccs1)NC(=O)c1ccccc1 | 0.3% | ? | -16.8% | -3.6% | -7.4% | 6.2% | -15.3% | -11.6%
44 | CC1CCc2nc(NCCO)nc(C(F)(F)F)c2C1 (stereo not given) | -2.3% | -5.2% | 5.9% | -2.0% | 4.3% | -0.1% | nt | -0.3%
45 | C=CCCC(=O)N1CCC(n2nccc2NC(=O)c2ccc(OC)cc2)CC1 | 9.1%[46.1 µM] | ? | -6.4% | 21.9% | nt | 2.4% | 16.7% | nt
46 | O=C(COC(=O)C1CCC(=O)N1)Nc1ccc(Br)cc1 (stereo not given) | -7.5% | 11.1%[46.1 µM] | -5.7% | ? | -7.5% | -1.6% | 1.4% | -2.8%
47 | Cc1ccc(C(=O)N2CCN(c3ccc(Cl)cc3)CC2)cc1 | 15.9% | -3.2% | -10.9% | -9.4% | -7.3% | -33.8% | -14.6% | 1.1%
48 | CCOC(=O)N1CCN(C(=O)c2cccc(NC3=NC4CS(=O)(=O)CC4S3)c2)CC1 (stereo not given) | 12.5% | 0.7% | -6.4% | 1.4% | -3.7% | -1.6% | 1.3% | 3.8%
49 | COc1ccc(/C=C(\C#N)C(=O)Nc2cccc(C)n2)cc1 | 14.8% | 15.0% | 2.4% | 7.7% | nt | 1.4% | 43.3%[activator] | nt
50 | Cn1cnc([N+](=O)[O-])c1S(=O)(=O)c1cccc(Cl)c1 | -17.8% | -30.7% | -5.5% | -40.4% | 3.1% | -40.5% | 25.1µM* | -0.5%
51 | CC1CN(C(=O)Nc2cccc(C(F)(F)F)c2)CC(C)O1 (stereo not given) | 5.8% | ? | 19.1% | -9.0% | nt | nt | -15.0% | nt
52 | COCCCNC(=S)Nc1ccc(C)cc1 | nt | nt | 7.3% | 3.5% | nt | 3.9% | 25.4% | nt
